Screens (PubChem BioAssay)
Ecoli rRNA inh: inhibits bacterial ribosomal RNA function over humanized ribosomes; E. coli WT GFP vs humanized-ribosome RFP mutants, fluorescence, 24 h; active compounds read low; DMSO median 0, no signal -100; GFP signal change (wild-type ribosome), % (test concentration not listed); hit rate 1.6% among 350,000; AID 720706;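 active = significant combined selectivity score with lowered wild-type GFP, culture density cut under 30%, mutant RFP and density less affected; inactive = any of these conditions unmet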; also: one replicate is shown; some compounds called inactive have numbers as strong as hits
FGF22 binding: FGF22 (human) thermal shift binding. recombinant FGF22 thermal shift, SYPRO orange fluorescence; percent of sucrose octasulfate shift, DMSO zero. AID 651658. calls only at 9.99 µM. hit rate 1.5% among 340,000;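 active = melting point raised past a set limit in the mean and every replicate; three in four hits are not shown here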
Target sequence (Q9HCT0 whole entry, looked up): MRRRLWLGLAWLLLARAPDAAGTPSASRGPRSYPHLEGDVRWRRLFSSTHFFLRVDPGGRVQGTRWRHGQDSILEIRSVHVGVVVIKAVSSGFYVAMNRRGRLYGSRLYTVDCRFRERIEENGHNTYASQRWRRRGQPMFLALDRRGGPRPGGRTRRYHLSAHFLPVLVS
MLL AF4-AF9 inh: blocks AF4 peptide binding to human AF9. inhibition, % at 10 µM. hit rate 0.47% among 350,000. AlphaScreen, biotin-AF4 peptide binding to FLAG-AF9;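 active = every replicate reaching a set inhibition limit, whatever the replicate mean, cut at about 25% in these data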;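 also: 0% = plate neutral control median and 100% = total signal loss; the record names both 10 and 1 µM as test concentration; the first replicate is given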
Target sequence (P42568 whole entry, looked up): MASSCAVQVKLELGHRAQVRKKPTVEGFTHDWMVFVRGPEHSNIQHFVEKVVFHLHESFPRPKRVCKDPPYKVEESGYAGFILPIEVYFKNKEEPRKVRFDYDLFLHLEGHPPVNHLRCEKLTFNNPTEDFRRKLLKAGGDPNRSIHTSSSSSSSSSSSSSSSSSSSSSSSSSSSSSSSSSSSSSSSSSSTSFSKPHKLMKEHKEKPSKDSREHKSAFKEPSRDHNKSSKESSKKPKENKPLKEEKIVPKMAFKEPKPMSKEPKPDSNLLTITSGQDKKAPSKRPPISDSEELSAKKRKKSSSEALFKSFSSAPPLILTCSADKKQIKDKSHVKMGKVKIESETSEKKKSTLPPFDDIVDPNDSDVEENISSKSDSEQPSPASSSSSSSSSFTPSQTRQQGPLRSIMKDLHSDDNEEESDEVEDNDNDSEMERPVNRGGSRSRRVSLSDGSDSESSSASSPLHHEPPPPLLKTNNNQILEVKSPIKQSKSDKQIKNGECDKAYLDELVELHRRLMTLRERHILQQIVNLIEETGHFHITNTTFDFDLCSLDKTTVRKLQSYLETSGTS
Ecoli rRNA inh OD600: further read-out of Ecoli rRNA inh, marked with its call; OD600 change, %; measured here: OD600 growth;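 optical density of the mix in the first replicate; 0 = DMSO median and -100 = no signal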
Ecoli rRNA inh RFP: second read-out of Ecoli rRNA inh, no call of its own (marks repeat the call); RFP signal change, %; measured here: RFP humanized mutant strains;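 first replicate; 0 = DMSO median and -100 = no signal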
* hit, by the source's call; i = inactive. This is a subset; rates above refer to the full screens.

Every second line gives: Ecoli rRNA inh, Ecoli rRNA inh OD600, Ecoli rRNA inh RFP, FGF22 binding, MLL AF4-AF9 inh
> O=C(C[C@H]1CC[C@H](NC(=O)CC2CC2)[C@@H](CO)O1)NCc1ccc(Cl)cc1
  -2, -11, 0.4, i, -6.7
> COc1cccc(CNc2nc3cc(-c4cccc(C(F)(F)F)c4)sc3c(=O)n2C)c1
  2, 7, -3.3, i, 3.4
> CNC(=O)c1ccc2cc(OC)c(OC)cc2c1
  -5, 3, -1.0, i, -3.3
> O=C(CC(F)(F)F)N1C[C@H]2[C@@H](c3ccccc31)[C@H](CO)N2C(=O)C1CCCCC1
  0, 14, 3.6, i, 0.0
> CO[C@@H](CN(C)C(=O)Nc1ccc(C(F)(F)F)cc1)[C@@H](C)CN(Cc1ccccc1Cl)[C@@H](C)CO
  -51, -73, -7.7, i, -16
> C[C@H](CO)N1C[C@H](C)[C@H](CN(C)C(=O)Nc2ccc(C(F)(F)F)cc2)OCCCC[C@H](C)Oc2ccc(NC(=O)Nc3cccc4ccccc34)cc2C1=O
  1, 6, 0.5, i, 0.3
> CCOC(=O)N(C)C[C@H]1OCc2ccccc2-c2ccccc2C(=O)N([C@H](C)CO)C[C@@H]1C
  2, 1, -1.3, i, 4.1
> O=C(NCc1ccco1)c1ccc2sc([C@@H]3O[C@H](CO)[C@H](O)[C@H](O)[C@H]3O)nc2c1
  7, 20, -0.3, i, -1.0
> COc1ccc(NC(=O)Nc2ccc3c(c2)C(=O)N([C@H](C)CO)C[C@H](C)[C@@H](CN(C)S(=O)(=O)c2ccc(Cl)cc2)OCCCC[C@H](C)O3)cc1
  -1, -2, -5.2, i, 6.6
> C[C@@H]1CN([C@H](C)CO)C(=O)Cc2cc(NC(=O)Cn3cnnn3)ccc2O[C@@H]1CN(C)S(=O)(=O)c1cccs1
  0, -3, 0.1, i, -2.1
> CSCCC(C(=O)Nc1c(C)cccc1C)N1CCC(Cc2ccccc2)CC1 (centres undefined)
  -19, -34, 5.8, i, 2.4
> COCC(=O)N1[C@H](CO)[C@@H](c2ccccc2)[C@@H]1C#N
  6, 8, -3.4, i, -3.6
> CC(C)COC(=O)N(C)C[C@H]1OCc2ccccc2-c2c(n(C)c3ccccc23)C(=O)N([C@@H](C)CO)C[C@@H]1C
  -5, -5, 9.9, i, -0.1
> O=S(=O)(c1ccccc1F)N1CC[C@H]2[C@H](CO)Nc3ccc(-c4ccccc4)cc3[C@H]21
  -16, -59, 19, i, 4.0
> O=C(C[C@@H]1C[C@H]2c3cc(NC(=O)c4ccc5c(c4)OCO5)ccc3O[C@H]2[C@@H](CO)O1)NCc1cccc(F)c1
  -1, -8, -2.0, i, -3.9
> O=C(C[C@H]1CC[C@@H]2[C@H](COC[C@@H](O)CN2Cc2cc(F)ccc2F)O1)NCc1ccc(Cl)cc1
  1, -19, -1.9, i, -20
> CN(C)CC(=O)N[C@H]1CC[C@H](CCNC(=O)C2CCCCC2)O[C@@H]1CO
  0, -4, -2.8, i, -1.1
> C[C@@H]1CCCCO[C@@H](CN(C)Cc2ccccc2)[C@H](C)CN([C@@H](C)CO)C(=O)c2cc(NC(=O)Nc3ccc4c(c3)OCO4)ccc2O1
  2, -1, 1.6, i, 1.9
> CCCC(=O)N1CC2(CN(S(C)(=O)=O)C2)c2c([nH]c3cc(OC)ccc23)[C@@H]1CO
  -1, 9, -3.2, i, 1.4
> C[C@@H]1CN([C@@H](C)CO)C(=O)c2cccc(NS(=O)(=O)c3cccs3)c2O[C@H]1CN(C)C
  7, 5, -3.0, i, -2.7
> CCO/C(C)=N/Oc1cc(OC)cc(OC)c1
  1, 5, -1.4, i, -3.0
> C[C@H]1CN([C@@H](C)CO)C(=O)Cc2cc(NC(=O)CCN3CCOCC3)ccc2O[C@H]1CN(C)Cc1ccc2c(c1)OCO2
  1, 2, -2.4, i, -0.7
> O=C(C[C@H]1CC[C@@H]2[C@H](COC[C@@H](O)CN2Cc2ccccc2)O1)N[C@@H]1CCN(Cc2ccccc2)C1
  -1, -1, 3.3, i, 4.7
> O=C(C[C@H]1C[C@H]2c3cc(NC(=O)NC4CCCC4)ccc3O[C@H]2[C@@H](CO)O1)NC1CCCC1
  -1, 4, -0.5, i, -1.5
> C[C@H]1CN([C@@H](C)CO)C(=O)c2cc(NS(=O)(=O)c3ccc(Cl)cc3)ccc2O[C@@H]1CN(C)Cc1ccc(C(=O)O)cc1
  3, 1, 0.5, i, -2.8
> C[C@@H]1CCCCO[C@@H](CN(C)CC2CC2)[C@@H](C)CN([C@H](C)CO)C(=O)c2cc(NS(=O)(=O)c3cn(C)cn3)ccc2O1
  -4, 0, -0.9, i, -6.2
> C[C@@H]1CN([C@H](C)CO)C(=O)Cc2cc(NC(=O)NC3CCCCC3)ccc2O[C@@H]1CN(C)C(=O)NC1CCCCC1
  2, 11, 1.2, i, -2.0
> Cc1ccc(NC(=O)c2nc[nH]c2C(=O)N(C)CCO)cc1
  18, 10, 3.9, i, -0.8
> COc1ccc2c3c([nH]c2c1)[C@@H](CO)N(C(=O)c1ccccn1)CC31CN(C(=O)C2CC2)C1
  3, 6, -2.4, i, 0.2
> COc1ccc(-c2ccc([C@@H]3[C@H]4CN(C(=O)c5ccc6c(c5)OCO6)CCCCN4[C@H]3CO)cc2)cc1
  -5, -61, 13, i, -8.8

Looked up above.
Ecoli rRNA inh, C[C@H]1CN([C@@H](C)CO)C(=O)Cc2cc(NC(=O)CCN3CCOCC3)ccc2O[C@H]1CN(C)Cc1ccc2c(c1)OCO2 → 1
Ecoli rRNA inh OD600, C[C@@H]1CCCCO[C@@H](CN(C)CC2CC2)[C@@H](C)CN([C@H](C)CO)C(=O)c2cc(NS(=O)(=O)c3cn(C)cn3)ccc2O1 → 0
Ecoli rRNA inh, C[C@H]1CN([C@@H](C)CO)C(=O)c2cc(NS(=O)(=O)c3ccc(Cl)cc3)ccc2O[C@@H]1CN(C)Cc1ccc(C(=O)O)cc1 → 3
Ecoli rRNA inh OD600, CCOC(=O)N(C)C[C@H]1OCc2ccccc2-c2ccccc2C(=O)N([C@H](C)CO)C[C@@H]1C → 1
Ecoli rRNA inh RFP, CCO/C(C)=N/Oc1cc(OC)cc(OC)c1 → -1.4

Given with tabs: part of the list above.
structure	Ecoli rRNA inh	Ecoli rRNA inh OD600	Ecoli rRNA inh RFP	FGF22 binding	MLL AF4-AF9 inh
COCC(=O)N1[C@H](CO)[C@@H](c2ccccc2)[C@@H]1C#N	6	8	-3.4	i	-3.6
CC(C)COC(=O)N(C)C[C@H]1OCc2ccccc2-c2c(n(C)c3ccccc23)C(=O)N([C@@H](C)CO)C[C@@H]1C	-5	-5	9.9	i	-0.1

Next part:
Every second line gives: Ecoli rRNA inh, Ecoli rRNA inh OD600, Ecoli rRNA inh RFP, FGF22 binding, MLL AF4-AF9 inh
> C#CCNC(=O)C[C@@H]1C[C@@]2(C(=O)OCC)CCC=C2N(Cc2ccco2)C1=O
  5, 23, 0.0, i, -5.4
> O=C(N[C@H]1CC[C@@H](CC(=O)N2CCCCC2)O[C@H]1CO)c1cccc(F)c1
  -1, 3, -2.4, i, -1.0
> C[C@@H]1CN([C@H](C)CO)C(=O)c2cccc(NC(=O)c3ccncc3)c2O[C@H]1CN(C)Cc1ccc(-c2ccccc2)cc1
  -8, -28, 5.2, i, 7.5
> CCCCNC(=O)C[C@@H]1C[C@@]2(C(=O)OC)CCCCC=C2N(Cc2ccc3c(c2)OCO3)C1=O
  -29, -44, -8.1, i, 1.6
> COc1cccc(CN(CCC(C)C)S(=O)(=O)c2cc(Br)ccc2Br)c1
  7, 15, 3.2, i, -6.7
> CCS(=O)(=O)Nc1ccc2c(c1)C(=O)N(C)[C@@H]1CC[C@@H](CC(=O)NCc3ccccc3F)O[C@@H]1CO2
  3, 11, -2.4, i, -18
> CC(=O)Nc1ccc(S(=O)(=O)N(C)CC(=O)OC(C)C(=O)NC2(C#N)CCCCC2)cc1 (centres undefined)
  -21, -28, -6.8, i, 7.3
> O=C(C[C@@H]1C[C@@H]2c3cc(NC(=O)C4CCC4)ccc3O[C@@H]2[C@@H](CO)O1)NCCc1ccccc1
  -2, -2, 2.5, i, 2.4
> CCCCCC(=O)N1C[C@H](O)[C@@H](n2cc(COC(=O)c3ccccc3)nn2)C[C@@H]1c1ccc(OC)cc1
  2, 1, -1.1, i, -0.6
> Cc1ccc(C(=O)N2CCC[C@@H]2C(=O)N2CCC[C@@H]2C(=O)NCc2ccccc2)cc1C
  5, 6, -0.7, i, -0.7
> N#Cc1ccc(-c2ccc([C@H]3[C@H]4CNCC(=O)N4[C@H]3CO)cc2)cc1
  -1, -7, 1.7, i, -1.8
> NS(=O)(=O)c1ccc(CCNc2ccn3nc(-c4cccc(C(F)(F)F)c4)cc3n2)cc1
  -3, -11, 2.3, i, 7.3
> CCC(=O)Nc1ccc2c(c1)C(=O)N(C)C[C@H](OC)[C@@H](C)CN(C(=O)CN(C)C)[C@@H](C)CO2
  -1, 0, 1.6, i, -11
> CC1(C(=O)NS(=O)(=O)c2ccccc2)CCN1C(=O)Cc1ccccc1 (centres undefined)
  15, 13, 3.0, i, 0.3
> CCCC#Cc1ccc([C@H]2[C@H](CO)N3CCCCN(S(=O)(=O)Cc4ccccc4)C[C@@H]23)cc1
  -58, -74, -10, i, 16
> COC(=O)C[C@@H]1CC[C@H]2[C@H](COc3ccc(NC(=O)c4ccc(F)cc4)cc3C(=O)N2C)O1
  -1, -8, -0.1, i, -2.3
> C[C@@H]1CCCCO[C@@H](CN(C)C(=O)Nc2ccc(F)cc2)[C@H](C)CN([C@H](C)CO)C(=O)c2cc(NC(=O)CCC(F)(F)F)ccc2O1
  0, -1, 0.8, i, -2.3
> CO[C@H]1CC[C@@H]2CCN(C)C(=O)[C@H](C)[C@H](OC)CN(C)C(=O)c3cccc(C#N)c3OC[C@H]1O2
  1, -7, 1.5, i, -3.5
> C[C@@H]1CN([C@@H](C)CO)C(=O)c2cc(NC(=O)NC3CCCCC3)ccc2O[C@@H](C)CCCCO[C@H]1CN(C)Cc1ccncc1
  -6, -3, 0.1, i, 1.9
> O=C(N[C@@H]1C=C[C@H](CC(=O)N2CCN(c3ccccc3)CC2)O[C@H]1CO)c1ccccc1
  1, 3, 0.5, i, -1.3
> CCC(=O)N1[C@@H]2Cn3c(ccc(C4=CCCCC4)c3=O)[C@H]1[C@@H](C(=O)N[C@@H](C)c1ccccc1)[C@@H]2CO
  1, -3, -0.8, i, -0.4
> O=S1(=O)CC(N2CCCCC2)CN1Cc1ccc(F)cc1 (centres undefined)
  0, 0, -7.7, i, -1.3
> CSc1ccc(OC2(C)CCN(Cc3ccc(C(C)C)cc3)C2)cc1 (centres undefined)
  -14, -35, -6.1, i, -0.5
> C[C@H]1CN([C@@H](C)CO)C(=O)c2cc(C#CC3CCCCC3)cnc2O[C@@H]1CN(C)C(=O)Nc1ccccc1
  0, -30, 19, i, 4.1
> CO[C@@H]1CN(C)C(=O)c2cc(NC(=O)C3CCOCC3)ccc2OC[C@@H](C)NC[C@H]1C
  3, -1, -0.7, i, -3.4
> Cc1cccc(CN(C)C[C@H]2OCc3cnnn3CCCC(=O)N([C@H](C)CO)C[C@H]2C)c1
  1, 1, 0.3, i, -0.5
> Cc1ccc(CN2C(=O)CN(S(C)(=O)=O)CC2(C)C(=O)NC(C)C)cc1 (centres undefined)
  20, 8, 3.4, i, -2.6
> C[C@H]1CN([C@@H](C)CO)C(=O)Cc2cc(NC(=O)Nc3ccccc3)ccc2O[C@H]1CN(C)S(=O)(=O)c1ccc(F)cc1
  -2, -9, 8.4, i, 5.5
> COc1ccc(S(=O)(=O)Nc2ccc3c(c2)C(=O)N([C@H](C)CO)C[C@@H](C)[C@@H](CN(C)Cc2ccc4c(c2)OCO4)O3)cc1
  2, 3, 0.2, i, 2.1
> CC(=O)N1CC(=O)N2[C@H](CO)[C@@H](c3ccc(-c4ccc(C)cc4)cc3)[C@@H]2C1
  0, 9, -0.6, i, -1.4
> CO[C@H]1CN(C)C(=O)c2cc(NC(C)=O)ccc2OC[C@H](C)N(Cc2cncnc2)C[C@H]1C
  4, 0, -2.3, i, -2.8
> C[C@H](CO)N1C[C@H](C)[C@H](CN(C)Cc2ccc3c(c2)OCO3)Oc2ccc(NC(=O)Nc3ccc(C(F)(F)F)cc3)cc2C1=O
  5, -7, -1.8, i, 2.3
> CCC(=O)N1CCCCN2[C@H](C1)[C@H](c1ccc(C#Cc3ccccc3F)cc1)[C@@H]2CO
  -55, -71, -5.7, i, -6.4
> O=C([C@@H]1[C@@H](CO)[C@@H]2Cn3c(ccc(C4=CCCC4)c3=O)[C@H]1N2C(=O)c1ccccc1)N1CCOCC1
  2, 11, -2.1, i, -2.9
> NC(=O)c1csc(-c2ccc(CO)o2)n1
  7, -4, -0.3, i, -1.2
> OC(c1cccc(F)c1)c1ncc(-c2ccc(C(F)(F)F)cc2)[nH]1 (centres undefined)
  -62, -80, -19, i, 5.6
> CCC(=O)Nc1ccc2c(c1)OC[C@H](C)N(Cc1ccccc1C(=O)O)C[C@@H](C)[C@H](OC)CN(C)C2=O
  3, -3, -4.2, i, -3.0
